Assay outcomes from PubChem BioAssay.
ALR inh: inhibitors of human ALR sulfhydryl oxidase, primary screen, biochemical, H2O2 detection, HRP-luminol luminescence, single point | FAD-linked sulfhydryl oxidase ALR (Homo sapiens), P55789 | purified ALR, DTT oxidation | inhibition, % (test concentration not listed) | 290,000 tested, 3.8% active;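 active = mean and each replicate at 75% or more; inconclusive = only one of the two met; inactive = neither met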;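 note: stock transfer was 7.5 nL into about 7.5 µL; 0% = neutral wells and 100% = wells with inactivated enzyme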
Target sequence (P55789 whole entry, looked up): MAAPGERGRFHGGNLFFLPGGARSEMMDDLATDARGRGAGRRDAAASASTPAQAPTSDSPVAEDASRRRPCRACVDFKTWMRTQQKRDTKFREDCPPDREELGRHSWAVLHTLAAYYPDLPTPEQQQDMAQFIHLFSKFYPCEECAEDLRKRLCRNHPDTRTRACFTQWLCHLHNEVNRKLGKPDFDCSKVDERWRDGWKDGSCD
AF4-AF9 inh: inhibitors of AF4 peptide binding to AF9, primary screen, biochemical, AlphaScreen, biotin-AF4 peptide, FLAG-AF9, single point | 350,000 tested, 0.47% active | Protein AF-9 (Homo sapiens), P42568 | inhibition, % at 10 µM;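 active = every replicate reaching a set inhibition limit, whatever the replicate mean, cut at about 25% in these data; inconclusive = mean inhibition reaches that limit but some replicates miss it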;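 note: 0% = plate neutral control median and 100% = total signal loss; the record names both 10 and 1 µM as test concentration; the first replicate is given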
Target sequence (P42568 whole entry, looked up): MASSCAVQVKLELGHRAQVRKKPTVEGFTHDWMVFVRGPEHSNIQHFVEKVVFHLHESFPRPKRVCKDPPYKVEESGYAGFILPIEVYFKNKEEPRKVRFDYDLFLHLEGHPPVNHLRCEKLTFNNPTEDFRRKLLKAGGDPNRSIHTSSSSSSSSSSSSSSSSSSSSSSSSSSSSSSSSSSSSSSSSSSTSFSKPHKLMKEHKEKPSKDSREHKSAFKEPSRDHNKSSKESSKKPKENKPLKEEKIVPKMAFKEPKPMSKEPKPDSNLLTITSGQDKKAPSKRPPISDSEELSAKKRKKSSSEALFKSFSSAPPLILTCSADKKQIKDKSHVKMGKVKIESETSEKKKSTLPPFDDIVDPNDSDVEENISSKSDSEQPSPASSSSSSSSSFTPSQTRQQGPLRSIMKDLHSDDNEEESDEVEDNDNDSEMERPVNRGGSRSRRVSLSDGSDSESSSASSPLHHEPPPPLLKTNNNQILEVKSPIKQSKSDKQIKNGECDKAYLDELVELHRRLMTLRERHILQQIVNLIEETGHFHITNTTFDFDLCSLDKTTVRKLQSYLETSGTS
Calb FLC: C. albicans growth inhibition with fluconazole, primary screen, CaCi-2 strain, Alamar Blue fluorescence. AID 1979, 2009. C. albicans CaCi-2 (fluconazole-resistant clinical isolate) + fluconazole, 48 h. 300,000 tested, 0.57% active. growth inhibition, % (test concentration not listed);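 active = most replicates above 75%; inconclusive = exactly half above 75%; inactive = most below 75%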;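 note: all wells also contain fluconazole at 8 µg/ml as a sub-toxic cotreatment; 0% = median of DMSO wells and 100% = median of geldanamycin control wells; wells of about 8 µL received 7.5 nL stock; the first replicate is given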
Beta apoptosis: inhibitors of cytokine-induced beta cell apoptosis, primary screen, luminescence; protection from apoptosis, % (concentration not given with the values); INS-1E cytokine-induced death, ATP luminescence, 48 h; percent of positive-control rescue, neutral wells zero; 300,000 tested, 0.8% active;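 active = all replicates at 75% or more, or half of them and the mean; inconclusive = half reach 75% but not the mean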;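 note: 0% = cytokine-treated negative control wells and 100% = positive control rescue; higher means more ATP so stronger rescue from cytokine killing; wells of about 40 µL received 100 nL stock; the first replicate is given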
rRNA inh HTS: reduced GFP signal of wild-type E. coli, primary screen, bacterial rRNA inhibitor project, GFP/RFP fluorescence, OD600, single point; E. coli WT GFP vs humanized-ribosome RFP mutants, 24 h; active compounds read low; DMSO median 0, no signal -100; AID 720706, 2013; GFP signal change (wild-type ribosome), % (concentration not given with the values); 350,000 tested, 1.6% active;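 active = significant combined selectivity score with lowered wild-type GFP, culture density cut under 30%, mutant RFP and density less affected; inactive = any of these conditions unmet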; note: one replicate is shown; some compounds called inactive have numbers as strong as hits
T cruzi inh: inhibitors of intracellular T. cruzi growth, primary screen, luminescence, NIH3T3 host cells; T. cruzi beta-gal in NIH3T3, 90 h; 300,000 tested, 1.4% active; inhibition, % (no concentration beside the values);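 active = mean inhibition across valid replicates above about 55%, limit read from the data; inconclusive = mean below that limit but half or more replicates reach it; inactive = mean below it, under half of replicates reach it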;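 note: signal also drops with host cell toxicity which is not excluded here; 0% = plate median of DMSO wells and 100% = zero luminescence signal; higher percent means less beta-gal luminescence so fewer parasites; stock transfer was 50 nL into about 50 µL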
FGF22 binding: binders of human FGF22 protein, primary screen, FGF22 synaptogenesis inhibitor project, biophysical, thermal shift, single point; 340,000 tested, 1.5% active; recombinant FGF22 thermal shift, SYPRO orange fluorescence; percent of sucrose octasulfate shift, DMSO zero; calls only at 9.99 µM;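 active = melting point raised past a set limit in the mean and every replicate; inconclusive = no clear call; three in four hits are not shown here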
Target sequence (Q9HCT0 whole entry, looked up): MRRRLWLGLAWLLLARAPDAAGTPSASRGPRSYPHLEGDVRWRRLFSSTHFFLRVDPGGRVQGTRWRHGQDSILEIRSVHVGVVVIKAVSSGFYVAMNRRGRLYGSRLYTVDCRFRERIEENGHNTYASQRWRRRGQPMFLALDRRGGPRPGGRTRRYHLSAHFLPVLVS
RanGTP-Impb inh: inhibitors of RanGTP-importin-beta interaction, primary screen, biochemical, FRET, CFP-Ran, YFP-importin-beta, homogeneous; 300,000 tested, 1.1% active; inhibition, % (no concentration beside the values); cell-free CFP-Ran/YFP-importin-beta FRET ratio;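 active = most replicates above 15%; inconclusive = exactly half above 15%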;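 note: 0% = DMSO wells and 100% = Ran loaded with GDP instead of GTP; wells of about 40 µL received 100 nL stock; the first replicate is given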
rRNA inh HTS OD600: also measured in rRNA inh HTS; calls as there; OD600 change, %; measured here: OD600 growth;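 optical density of the mix in the first replicate; 0 = DMSO median and -100 = no signal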
rRNA inh HTS RFP: also measured in rRNA inh HTS; calls as there; RFP signal change, %; measured here: RFP humanized mutant strains;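 first replicate; 0 = DMSO median and -100 = no signal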
Starred values were filed as active, the others as inactive; i = inactive; ? = inconclusive; · = no result given.

SMILES | ALR inh | AF4-AF9 inh | Calb FLC | Beta apoptosis | rRNA inh HTS | rRNA inh HTS OD600 | rRNA inh HTS RFP | T cruzi inh | FGF22 binding | RanGTP-Impb inh
O=C(/C=C/c1ccc(Cl)cc1)NC(=S)Nc1ccccc1C(=O)O | 19 | -1.1 | -12 | -3 | -18* | -0.2* | 6.0* | 0 | i | -0.5
CCn1ncc(Cl)c1C(=O)NC(C)c1ccccc1 (stereo not given) | 0 | 9.9 | 8 | -1 | -1 | -8 | -4.3 | -11 | i | 1.0
COc1ccc(/C=N\NC(=O)COc2ccccc2)c(C(=O)O)c1OC | -18 | -2.2 | -15 | 4 | 26 | 21 | 4.0 | -7 | · | -4.3
COc1ccc2nc(N/C(N)=N/C(=S)Nc3cccc(C)c3)nc(C)c2c1 | -4 | · | 6 | -6 | · | · | · | 49 | · | 0.5
O=C(/C=C/c1cccc([N+](=O)[O-])c1)OCC(=O)N1CCN(C(=O)c2ccco2)CC1 | -10 | 0.1 | · | -2 | 2 | 12 | 1.7 | · | i | ·
c1ccc2c(c1)Oc1ccccc1S2 | 2 | · | · | -5 | 0 | 0 | -0.4 | · | i | ·
Cc1ccc(C(OCC(O)CNC(C)c2ccccc2)c2ccccc2)cc1 (stereo not given) | -9 | 11 | -1 | 12 | -41 | -42 | -4.0 | 50 | i | 1.4
COC(=O)C1C(=O)C2=C(CC1C)NC(=O)CC2c1ccc(O)c(OC)c1 (stereo not given) | 20 | · | -6 | 2 | · | · | · | -9 | · | 1.6
CN(C)S(=O)(=O)Oc1ccccc1C(=O)Nc1ccccc1Cl | -1 | 0.4 | -1 | -1 | 8 | 9 | 1.3 | -23 | i | 4.2
CN1CCCC(OC(=O)COc2ccccc2)C1 (stereo not given) | -1 | · | -1 | 1 | · | · | · | -10 | · | -22
COc1cccc(CSCC(=O)NCCc2ccccc2)c1OC | -21 | -3.8 | 11 | -7 | -3 | -3 | 0.6 | 4 | i | ?
Cc1cc2nc(SCCN3CCOCC3)[nH]c2cc1C | -9 | · | 6 | -1 | · | · | · | 3 | · | 2.8
Cc1ccc(C(=O)NCCNc2nc3cc(C)c(C)cc3cc2C)cc1 | -3 | · | -17 | 12 | · | · | · | 5 | · | 1.4
C=CCSc1nnc(NC(=O)Cn2cnc3c2c(=O)n(C)c(=O)n3C)s1 | 4 | 1.0 | 12 | -3 | 11 | 4 | -2.3 | -7 | i | -1.5
O=C(Nc1ccc(Nc2ccccc2)cc1)C1CC1 | 100* | · | -21 | 0 | · | · | · | -5 | · | -1.4
O=C(COC(=O)c1ccc([N+](=O)[O-])s1)NC(c1ccccc1)c1ccccc1 | -13 | -6.2 | 26 | 2 | 4 | 30 | 11 | 10 | i | 1.0
CCCN(CCC)Cc1c(C(=O)N/N=C/c2ccc(C)o2)nnn1-c1nonc1N | -3 | -2.7 | 0 | 6 | 1 | 3 | 0.8 | -3 | i | -0.8
CN(Cc1c(C(=O)N/N=C/c2cccc(F)c2)nnn1-c1nonc1N)C1CCCCC1 | -1 | -5.7 | -6 | -3 | 11 | 18 | 1.1 | -3 | i | -1.0
CCOC(=O)CC(=O)CSc1n[nH]c(=O)[nH]c1=O | 32 | 4.1 | 1 | -4 | 8 | 1 | -4.6 | -11 | i | -1.4
CC1=C([N+](=O)[O-])C(c2ccc(O)c(O)c2)NC(=O)N1 (stereo not given) | 99* | 0.6 | · | 2 | 11 | 17 | 0.5 | -7 | i | -2.4
O=C1OC(Cc2ccccn2)C(O)=C1C1=NCCCN1 (stereo not given) | · | -1.4 | 18 | 1 | 15 | 13 | 2.3 | -9 | i | 5.1
COCCn1c(SC(C)C(=O)NC2CCCCC2C)nc2ccccc2c1=O (stereo not given) | 6 | 5.8 | -5 | · | -1 | 0 | -0.5 | 3 | i | 3.4
Cc1ccc(S(=O)(=O)Nc2ccc(Cl)cc2C(=O)c2ccccc2)cc1 | -3 | · | 12 | 7 | · | · | · | 37 | · | 1.0
O=C(/C(Cl)=C/Nc1ccc(Br)cn1)C(F)(F)F | -3 | -0.4 | 38 | -1 | -5 | 2 | -1.3 | -10 | i | -4.9
O=C(CCN1CCOCC1)NCC1COc2ccccc2O1 (stereo not given) | -5 | · | -6 | -2 | · | · | · | 2 | · | 0.7
CN(C)CCNC(=S)NC1CCCCC1 | -2 | -2.9 | -5 | -8 | · | · | · | -4 | · | 2.8
CCCC(=O)Nc1c(C)nn(C(=O)CCC)c1C | -2 | · | -7 | -4 | · | · | · | -10 | · | -1.4
CC(=O)c1cccc(NC(=O)Nc2ccccc2)c1 | -15 | -5.3 | 4 | 3 | 2 | 3 | 4.2 | 7 | i | 5.0
CCN(CC)S(=O)(=O)c1cc(C(=O)OCC(=O)c2ccc3c(c2)NC(=O)CO3)ccc1Cl | -2 | · | -12 | · | · | · | · | -10 | · | -0.3
CCOC(=O)CSc1cc(C)nc(NC(C)=O)n1 | -6 | · | 10 | -1 | 15 | 14 | 0.6 | -13 | · | -0.6
Cc1noc(C)c1CSCC(=O)Nc1ccccc1N1CCCCC1 | -4 | · | 10 | · | · | · | · | 11 | · | 6.4
Cn1c(=O)n(CCCOc2ccc(Br)cc2)c2ccccc21 | -6 | · | 26 | -6 | · | · | · | 14 | · | 1.7
Cc1ccc2c(C)c(C(=O)Nc3ccc(S(=O)(=O)Nc4onc(C)c4C)cc3)oc2c1 | 97* | -3.1 | 2 | · | -30 | -37 | -7.8 | -10 | i | 0.7
CCc1ccc(C(=O)CN2C(=O)NC3(CCOc4ccccc43)C2=O)s1 (stereo not given) | -3 | 0.6 | · | -1 | · | · | · | · | i | ·
Cc1cc(C)cc(C(=O)NC2C(=O)N3C(C(=O)O)=C(CSc4nnc(C)s4)CSC23)c1 (stereo not given) | 98* | -15 | -13 | -2 | 3 | 15 | -3.1 | -19 | i | 0.1
CC(C)(C)c1ccc(/C=C/C(=O)O)s1 | -8 | -1.5 | -1 | -7 | 12 | 4 | -0.6 | -11 | i | -1.5
CCCc1nc(SCC(=O)N2CCN(c3ccccc3)CC2)c2c(=O)n(C)c(=O)n(C)c2n1 | · | 2.0 | -4 | 10 | 0 | 8 | -6.0 | 8 | i | 0.3
CCOC(=O)Nc1cccc2ccccc12 | -2 | 8.3 | -3 | 3 | 3 | 2 | 2.7 | 0 | i | 2.2
CN1C(=O)C(CC(=O)NCCc2ccccc2)N(NC(=O)c2ccc(Cl)cc2)C1=S (stereo not given) | 18 | -2.9 | -18 | -5 | 4 | 5 | -0.6 | -1 | i | 3.3
Cc1ccccc1-n1c(SCC(=O)c2cc(C)n(C)c2C)nnc1-c1cccnc1 | 8 | · | 9 | -16 | · | · | · | 13 | · | 2.7
CCC(=O)Nc1ncc2c(n1)CC(c1ccco1)CC2=O (stereo not given) | -30 | · | 0 | -13 | · | · | · | -14 | · | -0.1
CC(C)(C)c1cc(C(=O)Nc2ccc(F)cc2)n(Cc2ccc(F)cc2)n1 | -1 | -6.2 | 0 | 8 | -17 | -35 | 13 | 33 | i | 3.1
COc1ccc(-c2noc(N3CCC(C(=O)N4CCN(c5ccccn5)CC4)CC3)n2)cc1 | -4 | · | 14 | 12 | · | · | · | 12 | · | -0.8
Nc1ncncc1-c1ccc(Cl)cc1 | -4 | -1.9 | 2 | -6 | -22* | -13* | -5.3* | -13 | i | -0.3
CC(C)Oc1cccc(C(=O)NC(=S)N2CCN(c3ccc(C(F)(F)F)cc3[N+](=O)[O-])CC2)c1 | · | · | -1 | 6 | · | · | · | 18 | · | 1.6
O=C(Nc1ccccc1C(=O)N1CCOCC1)c1noc2c1CCCC2 | 3 | · | -13 | 1 | · | · | · | -14 | · | 2.1
O=C1CC(NNC(=O)c2ccc(Br)cc2)C(=O)N1 (stereo not given) | · | 0.7 | -3 | -5 | 2 | 7 | 0.0 | · | i | 1.8
CC(C)CNC(=O)CC(=O)N/N=C/c1ccc(Br)cc1 | -6 | · | 3 | · | · | · | · | 3 | · | 8.8

2 entries from above, with tabs.
compound	ALR inh	AF4-AF9 inh	Calb FLC	Beta apoptosis	rRNA inh HTS	rRNA inh HTS OD600	rRNA inh HTS RFP	T cruzi inh	FGF22 binding	RanGTP-Impb inh
Nc1ncncc1-c1ccc(Cl)cc1	-4	-1.9	2	-6	-22*	-13*	-5.3*	-13	i	-0.3
CC(C)Oc1cccc(C(=O)NC(=S)N2CCN(c3ccc(C(F)(F)F)cc3[N+](=O)[O-])CC2)c1	·	·	-1	6	·	·	·	18	·	1.6

(continued)
SMILES | ALR inh | AF4-AF9 inh | Calb FLC | Beta apoptosis | rRNA inh HTS | rRNA inh HTS OD600 | rRNA inh HTS RFP | T cruzi inh | FGF22 binding | RanGTP-Impb inh
O=C1CN(C(=O)COc2ccc([N+](=O)[O-])cc2Cl)c2ccccc2N1 | -3 | 3.2 | · | 2 | -6 | -2 | -0.9 | · | i | ·
O=C(c1cc(-c2ccncc2)nc2ccccc12)N1CCN(S(=O)(=O)/C=C/c2ccccc2)CC1 | 2 | · | 1 | 0 | · | · | · | 42 | · | -2.1
Cc1ccc2c(c1)C(N1CCCC1=O)CC(c1ccco1)N2 (stereo not given) | · | · | -1 | 2 | · | · | · | -19 | · | -2.4
CCOc1ccccc1NC(=O)CCNS(=O)(=O)c1cccc2nonc12 | · | 1.3 | -1 | -3 | -14 | -17 | -0.3 | 4 | i | -0.4
COc1ccc(N2C(=O)C(CC(N)=O)N(NC(=O)c3cccc(OC)c3)C2=S)cc1 (stereo not given) | 17 | -0.7 | -3 | -2 | 2 | 6 | -3.1 | -3 | i | 6.1
CCOC(=O)C1(CCc2ccccc2)CCN(C(=O)c2cnc(C)cn2)CC1 | -44 | -2.6 | 7 | -8 | -14 | -8 | -0.9 | -8 | i | 1.8
COc1ccc(C(CCN2CCOCC2)c2c(OC)cc(OC)c3c(C)cc(=O)oc23)cc1 (stereo not given) | · | -13 | 5 | 3 | 2 | 4 | 6.2 | -9 | i | -2.5
COc1cc(C(C(=O)NCc2ccccc2)N(C(=O)c2snc(C(N)=O)c2N)C2CCCC2)cc(OC)c1OC (stereo not given) | -1 | 4.8 | -1 | 1 | -4 | 0 | 0.2 | 8 | i | 0.0
CCC1=NN(C(=O)CCc2ccc3c(c2)OCO3)C(O)(C(F)(F)F)C1 (stereo not given) | -3 | -5.2 | -21 | 1 | 2 | 7 | 1.9 | -5 | i | -0.3
O=C(/C=C/c1ccccc1)NC(NC(=S)Nc1ccc(Cl)cc1)C(Cl)(Cl)Cl (stereo not given) | -2 | · | -9 | 46 | · | · | · | 72* | · | -1.6
Cc1cc(C)cc(NC(=O)Nc2cccnc2)c1 | 7 | -0.9 | -11 | 7 | -2 | 1 | 0.4 | -4 | i | ?

A portion of the library; count on the stated rates, not on these rows.
